PMP22 txn prim: modulates PMP22 transcription in S16 Schwann cells; S16 Pmp22-F2sN Schwann cells (luciferase reporters placed in the Pmp22 gene), FLuc/NLuc coincidence luminescence, 24 h; Potency, µM (top dose mostly 57.5 µM), for inactives: at the top dose activity change, negative = inhibition, hits mostly inhibitors; 43,000 compounds, 2% hits; active = clear falling dose curves in both reporters; inconclusive = both reporters move, but less clearly or upward; inactive = either reporter flat; the % is the NLuc reporter signal; note: % is set by controls: 0 for no effect and ±100 for the full control effect; some results filed as inactive show a strong effect at the top dose
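qHTS, 1536-well. Cells seeded, compounds added by pin tool, 24 h 37C. Nano-Glo reagent 1 (lysis/FLuc), 10 min RT, read; Stop&Glo, 10 min RT, read NLuc.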
HTT prom inh: inhibits huntingtin promoter activity | 48,000 compounds, 0.93% hits | Potency, µM (series often up to 57.5 µM), for the others: top-dose activity change, negative = inhibition, actives largely listed as inhibitors | HEK293 HTT promoter firefly luciferase reporter (activity 0% = vehicle and -100% = no light), 24 h | AID 1508623; active = well fitted inhibition curve with a large enough effect; inconclusive = small, poorly fitted or top-dose-only effect; inactive = no such curve, though single readings can be large or run the other way; note: nearly all actives have a fitted effect of over 50% in size
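Firefly luciferase signal from promoter-reporter HEK293 cells was scaled between vehicle (0%) and zero RLU (-100%). Compounds were tested at final concentrations of up to 57.5 uM over 24 h at 37 degrees C. PTC124 at 50 uM final served as control inhibitor.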
* hit, by the source's call; u = inconclusive; x = not tested or not shown; [ ] = dose if it differs, or a comment. Potency is the fitted concentration of half-maximal effect.

Second line of a record: PMP22 txn prim, HTT prom inh
> COc1ccc(C)cc1NC(=O)CCc1c(C)nn(-c2ccc(N3CCOCC3)nn2)c1C
  u, -16%
> COc1cccc2cc(-c3nnc(-c4ccc(Cl)cc4)o3)c(=O)oc12
  -11%, 21%
> O=C(NCc1ccccc1Cl)c1cc2cccc3c2n1CCS3
  u, u
> CCCCC1CCC(C(=O)N2CC(=O)Nc3ccc(C)cc3C2c2ccc(F)cc2)CC1 (stereo not given)
  u, u
> COc1ccc(CNC(=O)CSc2ncc(S(=O)(=O)c3ccc(C)c(Cl)c3)c(=O)[nH]2)cc1
  -26%, -11%
> Cc1ccc(O)c([C@H](CCN(C(C)C)C(C)C)c2ccccc2)c1
  x, -4%
> COc1ccccc1C(=O)NC(=O)Nc1ccc(-n2nc(C(F)(F)F)cc2C(F)(F)F)cc1
  -6%, u
> O=c1n(Cc2ccccc2Cl)c2ccccc2c2nc(-c3ccccc3)nn12
  -4%, 1%
> COc1ccc2c(c1OC)C(=O)OC2[C@H]1c2c(cc3c(c2OC)OCO3)CCN1C (stereo not given in full)
  x, u
> CCC(CC)C(=O)Nc1nnc(S(=O)(=O)N2c3ccccc3CC2C)s1 (stereo not given)
  u, u
> COc1ccc(-n2nc(C(=O)Nc3ccc(Br)cc3C)c3c4ccccc4n(C)c3c2=O)cc1
  u, -22%
> COc1ccc2c(c1)CC(NC(=O)Nc1cc(Cl)ccc1OC)CO2 (stereo not given)
  u, u
> O=C(NCCSc1c[nH]c2ccccc12)c1ccc(Cl)cc1
  -3%, -2%
> COc1ccc(CNC(=O)CN2N=C(c3ccc(Cl)cc3)CCC2=O)cc1
  -5%, 0%
> CCc1ccc(C(=O)Nc2cc(CN3CCN(C)CC3)cc(C(F)(F)F)c2)cc1C#Cc1cnc2ccnn2c1
  x, -22%
> CC(C)(C)OC(=O)N1CCC(c2nnc(SCc3ccccc3)o2)CC1
  -41%, -34%
> Cc1cc(C)c(NC(=O)Cn2ccn(-c3cccc(Cl)c3)c(=O)c2=O)c(C)c1
  2%, -19%
> CCOc1ccc(NC(=O)Cc2ccc(NC(=O)N3CCCCc4ccccc43)cc2)cc1
  -10%, -31%
> CCCCCCC(=O)Nc1cc2nc3c(nc2cc1C)c(=O)n(C)c(=O)n3C
  -17%, 11%
> CCCCN(CCCC)C(=O)c1cc2c(=O)n3cccc(C)c3nc2s1
  u, -5%
> Cc1ccc(CNC(=O)c2c[nH]n3c(=O)c(Cc4ccc(F)cc4Cl)c(C)nc23)cc1
  3%, u
> Cc1ccc(C(=O)N2CCC(C)CC2)cc1NC(=O)c1nsc2ccccc12
  u, -30%
> COc1ccc(Cn2ccc3nc(C)c(C(=O)Nc4cc(OC)c(OC)c(OC)c4)cc3c2=O)cc1
  -2%, -22%
> Cc1ccc(-n2c(C)nc3c(cnn3-c3ccccc3C)c2=O)cc1F
  -10%, -11%
> Cc1ccc(CSC2=Nc3ccccc3C3=NC(CC(=O)NC4CCCCC4)C(=O)N23)cc1 (stereo not given)
  -5%, 39%[activator]
> COc1ccc(S(=O)(=O)N2CCC(c3nc4ccccc4s3)CC2)cc1OC
  u, u
> Cn1c(=O)c2c(nc(NCCc3ccccc3)n2Cc2cccc(Br)c2)n(C)c1=O
  -51%, -14%
> O=C(c1cccs1)N1CCCc2cc(NS(=O)(=O)c3ccc(F)cc3F)ccc21
  -6%, u
> CC(=O)Nc1cccc(-c2nnc(SCC(=O)c3ccc([N+](=O)[O-])cc3)o2)c1
  -8%, -24%
> Cc1ccc2c(c1)N(C(=O)Nc1cccc(C)c1C)CCO2
  -6%, -23%
> COc1ccc(N2C(=O)CSC23C(=O)N(Cc2ccc(C)cc2)c2ccccc23)cc1Cl (stereo not given)
  u, u
> COc1ccc(CCNC(=O)CCc2c(C)c3cc4c(C)coc4c(C)c3oc2=O)cc1OC
  u, -12%
> Cc1ccccc1C(=O)NCc1nc2cccnc2n1Cc1ccccc1
  1%, 1%
> COc1ccc(-n2nc(C(=O)N3CCN(c4ccc(F)cc4)CC3)c3c4ccccc4n(C)c3c2=O)cc1
  3%, -13%
> Cc1cccc(C(=O)Nc2ccc(S(=O)(=O)N3CCC(c4nc5ccccc5s4)CC3)cc2)c1
  -1%, -20%
> CCOC(=O)Cn1c(=O)oc2cc(S(=O)(=O)N3CCN(c4ccc(Cl)cc4)CC3)ccc21
  5%, u
> O=C(NCc1ccccc1)c1csc(Nc2ccncn2)n1
  x, -22%
> CCN(CC)c1ccc(NC(=O)CN2CCN(CC(=O)Nc3ccc(Cl)cc3)CC2)cc1
  3%, -28%
> CCCCS(=O)(=O)c1oc(-c2cccs2)nc1S(=O)(=O)c1ccc(F)cc1
  3µM*, u
> COc1ccc(S(=O)(=O)c2cn(C)c3cc(N4CCCCCC4)c(F)cc3c2=O)cc1
  u, -2%
> CCN1CCN(C(c2cccc(F)c2)c2c(O)cc(C)n(CCOC)c2=O)CC1 (stereo not given)
  12%, -12%
> CCOc1ccc(C2C(C(=O)OC)=C(C)NC3=C2C(=O)c2ccccc23)cc1OC (stereo not given)
  u, -16%
> CCc1ccc(-n2c(=O)c3ccc(C(=O)NCCc4ccccc4)cc3n(CC(N)=O)c2=O)cc1
  5%, -23%
> O=c1ccc2ccccc2o1
  x, -5%
> Clc1ccc(COC(Cn2ccnc2)c2ccc(Cl)cc2Cl)c(Cl)c1 (stereo not given)
  x, -21%
> CCCc1cc(=O)[nH]c(SCc2nc(-c3ccc(OCC)cc3)no2)n1
  -6%, -4%
> O=C(CSc1nc(=O)[nH]c2c1CCCC2)NCc1ccc(F)cc1
  -20%, -14%
> COc1ccc2[nH]c(S(=O)Cc3ncc(C)c(OC)c3C)nc2n1 (stereo not given)
  x, 0%
> COc1ccc2[nH]cc(CCN=C(NC(=O)c3cccc(Cl)c3)Nc3nc(C)cc(C)n3)c2c1
  u, -29%
> COc1ccc(C)cc1NC(=O)c1ccc2c(SCC(=O)O)c3c(nc2c1)CCCC3
  0%, -49%
> CCc1nc2nc(C)cc(Nc3ccc(F)c(Cl)c3)n2n1
  7%, -37%
> CCC(C)NC(=O)Cn1c(=O)n(CCCC(=O)NCc2ccc(C)cc2)c(=O)c2ccccc21 (stereo not given)
  -1%, -3%
> Cc1ccccc1C(=O)Oc1c(Sc2ccccc2)c(C)nn1C(C)(C)C
  u, -23%
> CCN1CCSc2ccc(C(=O)NCc3cccc(Br)c3)cc21
  u, -26%
> Cc1ccc(C)c(CNS(=O)(=O)c2ccc3c(c2)C(C)(C)C(=O)N3C)c1
  32%, -21%
> NS(=O)(=O)c1ccc(NC(=O)C2Cc3ccccc3N2C(=O)c2ccccc2)cc1 (stereo not given)
  -15%, -2%
> CC(C)C[C@H](NC(=O)[C@H](CCc1ccccc1)NC(=O)CN1CCOCC1)C(=O)N[C@@H](Cc1ccccc1)C(=O)N[C@@H](CC(C)C)C(=O)[C@@]1(C)CO1
  x, u
> COc1ccc(N2CC(NC(=O)/C=C\c3ccc4c(c3)OCO4)CC2=O)cc1OC (stereo not given)
  10%, -15%
> O=C(NCCS(=O)(=O)N1CCN(c2ccccc2F)CC1)C1CC(=O)N(c2ccccc2)C1 (stereo not given)
  8%, -15%
> Cc1cc(C)c(NC(=O)CCCN2C(=O)COc3ccc(C)cc32)c(C)c1
  u, -12%

(next part)
Second line of a record: PMP22 txn prim, HTT prom inh
> Cc1cc(C)cc(NC(=O)CC(C)n2nc(C)cc2C)c1 (stereo not given)
  -5%, -16%
> COc1cccc(NC(=O)CCc2nnc3n(CC(C)C)c(=O)c4ccccc4n23)c1
  -19%, 0%
> Cc1ccc2c(c1)-c1nc(-c3ccc(Cl)cc3)cc(-c3coc4ccccc4c3=O)c1CO2
  11%, -15%
> Cc1ccc(-c2onc(C)c2C)cc1S(=O)(=O)NCc1ccco1
  -26%, -19%
> O=C(Nc1cc(F)ccc1F)c1ccc2c(c1)nnn2C1CCCC1
  -15%, 20%
> OCc1ccccc1O
  x, 2%
> COc1cccc2[nH]c(C(=O)NCc3ccc4c(c3)CCN4C(=O)c3ccc(F)cc3)cc12
  u, u
> Cc1oc2c(c1C(=O)NCc1cccc(Br)c1)C1=NCCN1C=N2
  -6%, 7%
> Cc1ccc(N=C2NC(=O)CC(C(=O)Nc3cc(C(F)(F)F)ccc3Cl)S2)cc1 (stereo not given)
  -4%, u
> CCOc1ccc(CNC(=O)c2sc3ncnc(N(C)C4CCCCC4)c3c2C)cc1
  u, -30%
> CCCCCCCCCCCCCCCCCCN(C)C
  x, -5%
> O=C(Nc1cccc(C(F)(F)F)c1)c1cc2nc(-c3ccc4c(c3)OCO4)cc(C(F)(F)F)n2n1
  -3%, -14%[11.5 µM]
> CC(C)c1ccc(NC(=O)CSC2=Nc3ccccc3C3=NC(CCC(=O)NC4CCCCC4)C(=O)N23)cc1 (stereo not given)
  4%, -7%
> COc1cccc(CNC(=O)CCn2c(=O)c3cccn3c3ccc(F)cc32)c1OC
  u, -13%
> COc1cccc(CNC(=O)CN2C(=O)CCn3nc(-c4cn(C)c5ccccc45)cc32)c1OC
  -52%, -1%
> O=c1c(S(=O)(=O)c2ccccc2)cn(Cc2ccc(F)cc2)c2cc(N3CCCC3)c(F)cc12
  -17%, -18%
> Cc1nc2ncnn2c(C)c1CCC(=O)NCc1ccc(Cl)cc1
  3%, -7%
> Fc1ccc(Nc2nc(-c3cccc(Cl)c3)c3c(n2)-c2ccccc2OC3)cc1
  49%, -12%
> Cc1ccc(-n2nnnc2CNC(=O)c2ccccc2)cc1C
  -48%, 1%
> CC(=O)N1CCc2cc(CNC(=O)Nc3ccc(Br)c(C)c3)ccc21
  -9%, -9%
> CCCN(C(=O)c1cn(C)c(=O)c2cc(OC)c(OC)cc12)c1ccc(CC)cc1
  -14%, -25%
> CCOC(=O)COc1ccc(/C=C(\C#N)c2nc3ccc(C)cc3[nH]2)cc1OC
  8.9µM*, -17%
> Cc1cc(Nc2ccccc2Cl)n2nc(-c3ccco3)nc2n1
  -55%, -19%
> Cc1ccc(-c2sc(C(=O)Nc3ccc(Br)cc3)cc2CC(=O)O)cc1
  -10%, -4%
> CCOC(=O)c1oc2c(c1C)-c1nn(Cc3ccccc3Cl)cc1CC2
  -17%, u
> Nc1ccc(S(=O)(=O)NC(=O)c2ccccc2)cc1
  x, 7%
> COc1ccc2cc(CNc3ccc(OC)c(OC)c3)c(=O)n(CC(=O)Nc3ccc(C)cc3)c2c1
  -10%, -29%
> COc1ccc(-c2nc(Cn3c(SCc4cccc(F)c4)nc4cccnc43)c(C)o2)cc1
  u, u
> C[C@]12C=CC(=O)C=C1CC[C@@H]1[C@@H]2[C@@H](O)C[C@@]2(C)[C@H]1CC[C@]2(O)C(=O)CO
  x, 3%
> O=C(Cn1c(=O)nc(-c2ccccc2)c2cc(Cl)ccc21)N1CCN(c2ccccc2F)CC1
  -19%, u

Reprinted from the results shown, 7 compounds:
Second line of a record: PMP22 txn prim, HTT prom inh
> Cc1ccc(-c2sc(C(=O)Nc3ccc(Br)cc3)cc2CC(=O)O)cc1
  -10%, -4%
> CCOC(=O)c1oc2c(c1C)-c1nn(Cc3ccccc3Cl)cc1CC2
  -17%, u
> Nc1ccc(S(=O)(=O)NC(=O)c2ccccc2)cc1
  x, 7%
> COc1ccc2cc(CNc3ccc(OC)c(OC)c3)c(=O)n(CC(=O)Nc3ccc(C)cc3)c2c1
  -10%, -29%
> COc1ccc(-c2nc(Cn3c(SCc4cccc(F)c4)nc4cccnc43)c(C)o2)cc1
  u, u
> C[C@]12C=CC(=O)C=C1CC[C@@H]1[C@@H]2[C@@H](O)C[C@@]2(C)[C@H]1CC[C@]2(O)C(=O)CO
  x, 3%
> O=C(Cn1c(=O)nc(-c2ccccc2)c2cc(Cl)ccc21)N1CCN(c2ccccc2F)CC1
  -19%, u

(more compounds)
Second line of a record: PMP22 txn prim, HTT prom inh
> COCCN1CN=C(NS(=O)(=O)c2ccc(C)cc2)NC1
  -6%, -25%
> CCOc1ccc(CNC(=O)CCS(=O)(=O)c2ccc3c(c2)oc(=O)n3C)cc1
  u, -11%
> COc1cccc(-n2c(=O)c3c(C)c(C(=O)N(C)C)sc3n(Cc3ccc(F)cc3Cl)c2=O)c1
  -24%, 0%
> COc1ccccc1Nc1c2c(nc3ccc(NC(=O)/C=C/c4cccc(OC)c4OC)cc13)CCCC2
  11µM*, u
> CC(C)OCCCNC(=O)c1ccc(CSc2nc3cccnc3n2Cc2ccccc2)cc1
  -24%, u
> Cc1ccccc1-c1ncnn1-c1sc2c(c1C#N)CCCCC2
  -18%, 1%
> CCOc1ccc(OCC)c(NC(=O)c2cnc(SC)nc2-c2ccccc2)c1
  -31%, -22%
> Cc1cccc(CSc2nc3ccncc3n2Cc2ccc(C(=O)O)cc2)c1
  -2%, 5%
> Cc1ccc(NC(=O)c2oc3ccc(S(=O)(=O)N4CCCCC4)cc3c2C)cc1C
  -26%, -24%
> COc1ccc(Nc2ncc(C(=O)Nc3cccc(Cl)c3)c3ccccc23)cc1
  -83%, -6%
> COc1ccc(-c2cc(C(F)(F)F)nc(SCC(=O)N3CCCCC3)n2)cc1OC
  u, -17%
> Cc1ccc2c(c1)c1c(c(=O)n(Cc3ccccc3)c(=O)n1Cc1ccccc1F)n2C
  -3%, -9%
> COc1ccccc1N1CCN(CCCNC(=O)c2nnc(Cc3ccc(F)cc3Cl)o2)CC1
  u, u

Source: PubChem BioAssay
